# gsp antag = antagonizes gsp, the McCune-Albright syndrome mutation; gsp-mutant cells, cAMP HTRF, 30 min; control for the full effect not named in the record; Potency, µM (doses to about 76.9 µM), for the others: at the highest dose activity change, negative = inhibition, usual class: inhibitors; 0.4% of 340,000 active; AID 624288; active = falling curve of any shape with a large fitted effect; inconclusive = falling curve, mostly with a smaller effect; inactive = flat or rising curve; cell line not stated here;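 further: intracellular cAMP measured with PDE inhibitor Ro 20-1724 present during compound exposure; potency means the concentration at half of the fitted maximal effect; on the % scale 0 is the no-effect control and ±100 the full control effect; nearly all actives have a fitted effect of over 65% in size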
#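 HTRF cAMP read-out (cAMP-d2 plus anti-cAMP antibody-K in lysis buffer, 30 min RT). Before lysis, cells are exposed to compounds with […] for 30 min at 37C in DPBS containing Ca/Mg, BSA and Tween 20.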
# Six1-Eya2 inh = blocks human Six1 binding to Eya2. Q15475+O00167. AlphaScreen GST-Six1/His-Eya2 binding, biochemical; hits give low values; control for the full effect not named in the record. activity change, % (test concentration not listed). 0.56% of 360,000 active. AID 651725; in the data active = activity change below about -65%; inconclusive = about -30% to -65%; inactive = above about -30%; further: on the % scale 0 is the no-effect control and ±100 the full control effect; compound concentration not given in the record
# Target sequence (O00167 whole entry, looked up): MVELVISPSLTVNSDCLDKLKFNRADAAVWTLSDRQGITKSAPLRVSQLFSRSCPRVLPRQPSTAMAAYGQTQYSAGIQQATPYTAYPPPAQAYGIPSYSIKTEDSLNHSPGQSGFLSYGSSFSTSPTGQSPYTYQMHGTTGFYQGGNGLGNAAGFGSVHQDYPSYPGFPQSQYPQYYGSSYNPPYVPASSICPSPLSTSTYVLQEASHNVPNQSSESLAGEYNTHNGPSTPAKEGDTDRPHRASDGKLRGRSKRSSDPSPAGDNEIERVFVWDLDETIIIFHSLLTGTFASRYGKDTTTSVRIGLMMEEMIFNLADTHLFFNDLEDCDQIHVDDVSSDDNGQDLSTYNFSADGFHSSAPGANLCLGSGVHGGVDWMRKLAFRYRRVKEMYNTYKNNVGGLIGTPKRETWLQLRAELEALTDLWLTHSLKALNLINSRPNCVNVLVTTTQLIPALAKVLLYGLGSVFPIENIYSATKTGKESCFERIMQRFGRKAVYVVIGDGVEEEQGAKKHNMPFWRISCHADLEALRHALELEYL
# Target sequence (Q15475 whole entry, looked up): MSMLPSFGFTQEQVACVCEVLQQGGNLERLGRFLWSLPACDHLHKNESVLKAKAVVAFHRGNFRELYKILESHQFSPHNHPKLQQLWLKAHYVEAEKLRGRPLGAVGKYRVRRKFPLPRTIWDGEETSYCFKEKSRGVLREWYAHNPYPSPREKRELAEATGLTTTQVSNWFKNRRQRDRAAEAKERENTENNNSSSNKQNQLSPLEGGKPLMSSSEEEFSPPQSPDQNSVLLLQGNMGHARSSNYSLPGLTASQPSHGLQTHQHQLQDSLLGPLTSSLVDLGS
#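 Homogeneous AlphaScreen proximity assay pairing GST-Six1 with His-tagged Eya2 (added as 5X mix: 250 nM and 500 nM) in 50 mM Tris pH 8.0, 300 mM NaCl, 1 mM TCEP. Glutathione donor and nickel acceptor beads; 1 h, 37 °C, dark.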
# gsp agonist = activates gsp, the McCune-Albright syndrome mutation. 0.13% of 340,000 active. AID 624287. Potency, µM (highest dose often 76.9 µM), for the others: at the highest dose activation (cAMP increase), usual class: activators. gsp mutant cells, cAMP HTRF, 30 min; control for the full effect not named in the record; active = well fitted activation curve with a large enough effect; inconclusive = small, poorly fitted or top-dose-only effect, or another doubt; inactive = no such curve, though single readings can be large or run the other way; cell line not stated here;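 further: phosphodiesterase inhibitor Ro 20-1724 added with compounds to block cAMP breakdown; potency means the concentration at half of the fitted maximal effect; nearly all actives have a fitted effect of over 60% in size; about a fifth of the inactives were tested at one dose only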
#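 Cells stably selected in G418 were plated at 2000/well, grown 16-24 hr, then given compounds in DMSO with the PDE inhibitor […] (300 uM solution added) for 30 min at 37C; cAMP was read by HTRF.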
# D2 ag = agonists of human D2 dopamine receptor (beta-arrestin). P14416. DiscoveRx PathHunter D2 beta-arrestin, luminescence, 90 min; 100% = 57 uM dopamine signal. activation, % (test concentration not listed). 0.084% of 360,000 active; in the data active = activation above about 40%; inconclusive = about 15% to 40%; inactive = below about 15%; further: compound concentration not given in the record; the text of the record calls up to 30% inactive
#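 Agonist mode: compounds alone added to overnight-plated D2 PathHunter cells for 90 min at 37 C, with 57 uM final dopamine (EC100) defining full response. Beta-arrestin recruitment detected by chemiluminescent reagent, read after 1 h at ambient temperature.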
# D2 potentiator = human D2 receptor positive allosteric modulation | P14416 | DiscoveRx D2 beta-arrestin cells, luminescence, 90 min; 100% = 57 uM dopamine signal | potentiation, % (no concentration beside the values) | 0.23% of 360,000 active; active = potentiation of 50% or more; inconclusive = 30% to 50%; inactive = 30% or less;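 further: compound concentration not given in the record; tested on top of an EC20 dose of dopamine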
#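 D2 cells co-treated with compound plus 50 nM dopamine (EC20) for 90 min at 37 deg C to detect potentiation. Beta-arrestin recruitment was read as enzyme-fragment luminescence after 1 h at ambient temperature. Full response was set by 57 uM dopamine.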
# CtBP-E1A inh = CtBP/E1A binding inhibition. 0.49% of 340,000 active. activity change, % (concentration not given with the values). AlphaScreen GST-E1A/His-CtBP binding, 1536-well; hits give low values; control for the full effect not named in the record; in the data active means activity change below about -65%; inconclusive means about -30% to -65%; inactive means above about -30%; further: on the % scale 0 is the no-effect control and ±100 the full control effect
#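 In 5 uL wells, 23 nL compound meets equimolar GST-E1A and His-CtBP (5X stock 125 nM each) for 2 h, 37 °C. Beads (5X, 50 ug/mL) then 1 h, 37 °C, dark.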
# * marks the source's active call; other numbers are inactive results; ? = inconclusive; / = no result given; [ ] = remark or other dose.
SMILES,gsp antag,Six1-Eya2 inh,gsp agonist,D2 ag,D2 potentiator,CtBP-E1A inh
OCCN(Cc1nc(-c2ccc3c(c2)OCO3)no1)Cc1cccs1,-2.3%,-0.8,-15.3%,-5.1,-11.5,-9.9
COc1ccc(CCN2CC(C(=O)OCc3ccccc3Cl)CC2=O)cc1OC (stereo not drawn),-9.7%,2.0,7.1%[15.4 µM],-3.3,5.5,0.1
CC(=O)Nc1ncc(Sc2ccc([N+](=O)[O-])cc2)s1,-10.9%,3.0,-8.5%[15.4 µM],1.2,9.2,-2.3
CCCCC(=O)Nc1cccc(-c2cn3ccccc3n2)c1,-1.0%,-0.1,1.6%,1.8,-13.9,10.8
CCc1ccc(S(=O)(=O)Nc2ccc(O)c3c(=O)cc(-c4ccccc4Cl)oc23)cc1,-13.9%,-15.8,/,-2.3,-7.4,?
Cc1ccc(C#N)c(SCc2ccccc2F)n1,-4.0%,30.8,0.5%[15.4 µM],-3.1,0.2,3.7
COc1ccc(C(=O)NCc2nnc(SCC(=O)Nc3ccc4c(c3)OCO4)o2)cc1,-2.9%,-8.7,12.1%,-1.1,-1.8,/
CCC(=O)Nc1ccc(C(=O)Nc2ccc3c(c2)C(=O)N(CC2CCCO2)C3=O)cc1 (stereo not drawn),1.1%,4.1,-6.8%,0.8,-0.7,4.3
O=C(Nc1nnc(-c2cccs2)o1)C1CC1,4.3%,-7.5,6.8%,-1.8,-7.3,-11.4
COC(=O)CN1C2=NCCCN2c2ccccc21,7.8%,6.1,4.8%[15.4 µM],-5.4,-5.2,5.7
O=C(Nc1cccc(S(=O)(=O)N2CCOCC2)c1)C12CC3CC(CC(C3)C1)C2,-6.7%,7.4,-25.3%,2.6,-6.7,12.1
COC(=O)c1nn(-c2ccc(C)cc2)c2nnc(Cc3ccccc3)c(=O)n12,4.1%,3.8,-31.3%[inhibitor],1.8,6.8,6.1
O=c1[nH]n(-c2ccccc2)c(=O)c(Cl)c1Cl,-13.6%,-1.7,8.8%,-1.6,-4.6,0.2
CCc1ccc(-c2nc(-c3ccncc3)no2)cc1,0.8%,15.9,?,3.3,-1.5,3.3
Cc1ccc(OCCN2CCCCCC2)c(C)c1,5.3%,4.0,4.0%,-0.8,-8.2,-4.6
c1ccc(Cn2c(NCc3ccncc3)nc3ccccc32)cc1,-8.0%,2.4,8.2%,2.1,-18.1,/
Cc1c(NC(=O)c2cccs2)c(=O)n(-c2ccccc2)n1C,-2.0%,-7.6,5.6%[15.4 µM],-2.8,0.6,15.2
COc1cc(NC(=O)Cn2ccsc2=N)cc(OC)c1,9.4%,-0.5,3.5%[15.4 µM],1.8,-3.9,-2.1
O=C(NC(=S)Nc1ccc(NC(=O)c2cccs2)cc1)c1cc2ccccc2o1,-4.4%,7.8,9.5%,-1.0,13.3,-1.7
CC(=O)c1ccc(N2CCN(S(=O)(=O)c3ccc4c(c3)CC(C)N4C(C)=O)CC2)cc1 (stereo not drawn),?,?,1.8%[15.4 µM],-0.9,5.8,-22.6
Cc1ccnc2nc(C(=O)OCC(=O)NCCc3ccccc3)nn12,4.6%,6.6,-5.8%,-2.1,-2.7,-1.4
CCOC(=O)COc1ccc(S(=O)(=O)N2CCN(C(=O)OCC)CC2)cc1,-4.3%,1.8,?,-2.3,-3.1,0.0
Cc1[nH]c2ccc(C(=O)NCCN3CCCCCC3)cc2c1C,-0.8%,-7.9,18.6%,11.9,-11.5,/
O=C(O)CCCNS(=O)(=O)c1ccc2c(c1)OCCCO2,11.6%,10.9,?,-2.1,-22.9,1.0
Cc1nn(-c2ccccc2)c(Cl)c1/C=C1/C(=N)N2N=C(C(C)C)SC2=NC1=O,?,-10.5,3.7%[15.4 µM],0.6,12.1,-4.8
CN(C)c1ccc(C(=O)N2CCCC2)cc1,3.2%,2.4,26.2%,-3.4,-9.7,/
COc1ccc(N2C(=O)CC(Sc3n[nH]c(-c4cccc(C)c4)n3)C2=O)cc1 (stereo not drawn),-1.4%,3.0,-10.5%[15.4 µM],2.0,-7.4,-9.4
COc1ccc([C@@H]2C[C@H]3CN(c4ccccc4)C(=O)[C@]34CCCN24)c(OC)c1OC,-0.3%,-4.6,-24.4%,-5.5,-13.2,/
CCc1ccc(NC(=O)CN2CCN(c3ccc(OC)cc3)CC2)cc1,1.6%,-8.2,-3.7%,2.6,2.1,-20.7
COc1cccc(-n2cn[nH]c2=S)c1,0.0%,-2.7,-21.7%,-4.3,-3.1,/

# A draw from above in order of count of non-hydrogen atoms, ascending:
SMILES,gsp antag,Six1-Eya2 inh,gsp agonist,D2 ag,D2 potentiator,CtBP-E1A inh
Cc1c(NC(=O)c2cccs2)c(=O)n(-c2ccccc2)n1C,-2.0%,-7.6,5.6%[15.4 µM],-2.8,0.6,15.2
COc1ccc([C@@H]2C[C@H]3CN(c4ccccc4)C(=O)[C@]34CCCN24)c(OC)c1OC,-0.3%,-4.6,-24.4%,-5.5,-13.2,/
COc1ccc(C(=O)NCc2nnc(SCC(=O)Nc3ccc4c(c3)OCO4)o2)cc1,-2.9%,-8.7,12.1%,-1.1,-1.8,/

# Going on with the list:
SMILES,gsp antag,Six1-Eya2 inh,gsp agonist,D2 ag,D2 potentiator,CtBP-E1A inh
Cn1cc(CC(=O)NCc2ccc(F)cc2)c2ccccc21,6.1%,-16.1,0.4%[15.4 µM],-0.7,-6.0,1.4
CCS(=O)(=O)c1nc(S(=O)(=O)c2ccc(Cl)cc2)c(NCc2ccco2)s1,5.4%,-12.4,18.5%,-3.2,-6.0,-3.3
Cc1nn(CC(=O)Nc2ccccn2)c(C)c1[N+](=O)[O-],-5.5%,0.0,-1.9%,0.6,-2.5,0.6
CSc1nc(C)c2c(n1)N(c1cccc(C)c1)CC2,-4.2%,-1.5,3.3%,-2.1,-0.5,0.4
CSc1nnc(-c2ccc(O)cc2)n1C,-1.3%,1.4,-78.0%[inhibitor],-3.6,4.3,-4.3
CCOC(=O)N1CCN(CCC(=O)Nc2ccc(OC)cc2)CC1,5.1%,0.5,-23.0%,-2.7,-6.7,-0.1
Oc1cc2c(cc1O)CN(C(=S)NCCc1ccc(Cl)cc1)CCC2,-21.2%,-11.6,/,-1.9,-1.3,-6.3
Cn1ccsc1=NC(=O)c1ccc(CS(C)(=O)=O)cc1,4.7%,-6.0,-4.2%,1.0,-1.7,0.5
COc1ccc(Br)cc1S(=O)(=O)N1CCCC1,5.1%,3.4,13.4%,-1.3,-6.1,0.5
Cc1ccc([N+](=O)[O-])cc1N=C(c1ccc([N+](=O)[O-])cc1)N1CCOCC1,4.2%,-14.3,-9.5%[15.4 µM],1.7,4.9,-2.4
CC(C)OC(=O)c1cc2c(ccn2-c2ccc(F)cc2)n1CC(=O)N1CCN(C(=O)c2ccco2)CC1,?,2.0,?,-2.0,-5.7,-8.2
Cc1ccc(C2(c3noc(CN4CCOCC4)n3)CCCC2)cc1,-3.0%,0.1,-39.9%[inhibitor],-1.9,-10.6,/
CN(CC(=O)OCC(=O)NC(=O)c1cccn1C)S(=O)(=O)c1ccc(Cl)cc1,-2.5%,0.4,?,-0.1,-5.4,-3.3
CCc1c(C)nc2ncnn2c1Nc1ccccc1C,0.2%,12.2,-9.0%[15.4 µM],-4.3,-3.0,3.0
CCc1ccc(N2CCN(S(=O)(=O)CC34CCC(CC3=O)C4(C)C)CC2)cc1 (stereo not drawn),-8.5%,2.8,-26.4%,-3.5,-7.1,-3.5
C[C@@H]1CN([C@@H](C)CO)C(=O)c2cc(NS(C)(=O)=O)ccc2O[C@@H](C)CCCCO[C@H]1CN(C)Cc1ccc2c(c1)OCO2,/,4.9,?,-0.3,3.8,3.7
COCCN(C(=O)c1ccco1)c1nnc(-c2ccc(OC)c(OC)c2)s1,1.9%,5.5,0.0%,0.2,-11.9,-2.9
COc1ccccc1C(=O)Nc1ccccc1SC(=O)c1ccccc1OC,33.7%[activator],-11.7,?,14.0,-2.9,-1.8
COc1ccc(CN(C(=O)c2ccccc2Br)C2CCS(=O)(=O)C2)cc1 (stereo not drawn),-1.3%,1.9,25.5%,-2.0,-1.5,6.1
S=C(Nc1ccccc1)N(Cc1ccccc1)Cc1ccncc1,-10.9%,-3.0,15.0%,0.5,-0.8,1.7
COc1ccc(OC)c(-n2nnnc2SCC(=O)NCc2ccc3c(c2)OCO3)c1,-1.3%,-0.1,-3.2%,-1.6,-5.4,-7.8
OC(CN1CCN(c2cccc(Cl)c2)CC1)c1ccccc1 (stereo not drawn),9.1%,-5.4,20.8%,3.4,-28.0,1.6
CC(C)(CNC(=O)c1ccc(NS(=O)(=O)c2ccc(F)cc2)cc1)N1CCOCC1,4.1%,7.2,-41.5%[inhibitor],0.9,18.5,-6.3
O=C(Nc1ccc(Cl)cc1)[C@@H]1[C@@H]2C(=O)N(c3cccc(F)c3)C(=O)[C@@H]2[C@H]2C=CC=NN21,-16.7%,-6.6,3.2%[15.4 µM],-6.8,-6.4,-6.6
CCOc1ccc(OCC(=O)OCc2cc(=O)n3cc(Br)ccc3n2)cc1,3.6%,-1.2,26.3%,5.8,-2.4,1.6
Cc1cccc(OCC(=O)NCc2ccccc2)c1,7.5%,-0.1,-2.3%[15.4 µM],1.6,-3.4,-2.9
O=C(O)CCC(=O)Nc1ccc(S(=O)(=O)c2ccc(NC(=O)CCC(=O)O)cc2)cc1,3.6%,3.0,0.5%,-3.1,0.0,-6.5
CCOc1ccc(N2C(=O)CC(N(C)Cc3ccccc3)C2=O)cc1 (stereo not drawn),8.1%,7.9,-27.9%,0.7,-19.1,4.5
COc1ccc(Cl)cc1NC(=O)Nc1ccc(C(=O)N2CCOCC2)cc1,-6.6%,-2.3,-32.8%[inhibitor],-5.1,-32.6,-4.3
Cc1ccc(S(=O)(=O)Nc2cnc3ccccc3c2)cc1,-13.9%,-3.2,4.7%,-2.3,-3.0,/
O=C(Nc1cccc(S(=O)(=O)N2CCCCC2)c1)C1CC(=O)N(c2ccc3c(c2)OCCO3)C1 (stereo not drawn),-26.8%,-12.1,-18.6%,-2.7,-4.8,-3.9
Cn1c(CCNC(=O)c2ccccc2F)nnc1SCC(=O)Nc1ccccc1F,3.9%,-15.2,-9.3%,0.3,0.1,0.8
O=C(c1ccc(S(=O)(=O)N2CCCC2)cc1)N1CCC(CN2C(=O)c3cccc4cccc(c34)C2=O)CC1,-13.7%,-27.2,-15.1%[15.4 µM],0.2,1.6,-13.6
CCN1C(c2ccccc2)=C(c2ccccc2)S/C1=C/C=C1\SC(=S)N(C)C1=O,-24.5%,?,5.5%,11.9,23.4,?
Cc1ccc(N2C(=O)C3C(C2=O)N2C(c4cccs4)C4C(=O)N(c5ccc(C)cc5)C(=O)C4N2C3c2cccs2)cc1 (stereo not drawn),-22.7%,-3.9,-9.3%,-1.5,-13.1,6.0
C[C@H](NC(=O)[C@@H]1Cc2ccccc2CN1)C(=O)Nc1ccc2c(c1)OCCO2,8.4%,2.8,11.8%,0.3,-33.1,-4.3

# Compound activity (PubChem BioAssay)
